High-throughput results (PubChem BioAssay)
Bfl-1 A1 inh: inhibitors of the anti-apoptotic protein A1, read as caspase activation; MEF A1-2A-BIM cells, Caspase-Glo 3/7 luminescence, 3 h; percent of clofoctol response, vehicle zero; caspase activation, % (test concentration not listed); 0.066% of 330,000 active;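 active means over half of replicate activation scores above 10%, or exactly half above 10 with the replicate mean above 10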;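 further: wells of about 30 µL received 50 nL stock; many hits fall short of the cut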
Beta cell apopt: blocks beta cell apoptosis; protection from apoptosis, % (concentration not given with the values); INS-1E cytokine-induced death, ATP luminescence, 48 h; percent of positive-control rescue, neutral wells zero; 0.8% of 300,000 active; AID 435005;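 active means all replicates at 75% or more, or half of them and the mean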;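 further: 0% = cytokine-treated negative control wells and 100% = positive control rescue; higher means more ATP so stronger rescue from cytokine killing; wells of about 40 µL received 100 nL stock; the first replicate is given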
FGF22 binding: FGF22 (human) thermal shift binding. recombinant FGF22 thermal shift, SYPRO orange fluorescence; percent of sucrose octasulfate shift, DMSO zero. Q9HCT0. calls only at 9.99 µM. 1.5% of 340,000 active;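 active means melting point raised past a set limit in the mean and every replicate; three in four hits are not shown here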
Target sequence (Q9HCT0 whole entry, looked up): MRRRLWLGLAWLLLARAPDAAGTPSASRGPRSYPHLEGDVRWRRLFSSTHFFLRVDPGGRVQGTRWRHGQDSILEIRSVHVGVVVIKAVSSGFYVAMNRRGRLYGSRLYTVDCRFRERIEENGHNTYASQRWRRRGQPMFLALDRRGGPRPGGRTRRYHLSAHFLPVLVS
Ecoli rRNA inh: selective bacterial rRNA inhibition in E. coli; 1.6% of 350,000 active; E. coli WT GFP vs humanized-ribosome RFP mutants, fluorescence, 24 h; active compounds read low; DMSO median 0, no signal -100; GFP signal change (wild-type ribosome), % (concentration not given with the values); AID 720706;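 active means significant combined selectivity score with lowered wild-type GFP, culture density cut under 30%, mutant RFP and density less affected; inactive means any of these conditions unmet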; further: one replicate is shown; some compounds called inactive have numbers as strong as hits
UCH37 inh: human UCH37 deubiquitinating enzyme inhibition; Q9Y5K5; purified proteasome/UCH37, Ub-AMC cleavage fluorescence; inhibition, % (concentration not given with the values); 0.33% of 330,000 active;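 active means mean of two replicates above 20%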;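 further: 0% = compound-free wells with enzyme and 100% = wells lacking proteasome; stock transfer was 100 nL into about 20 µL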
Target sequence (Q9Y5K5 whole entry, looked up): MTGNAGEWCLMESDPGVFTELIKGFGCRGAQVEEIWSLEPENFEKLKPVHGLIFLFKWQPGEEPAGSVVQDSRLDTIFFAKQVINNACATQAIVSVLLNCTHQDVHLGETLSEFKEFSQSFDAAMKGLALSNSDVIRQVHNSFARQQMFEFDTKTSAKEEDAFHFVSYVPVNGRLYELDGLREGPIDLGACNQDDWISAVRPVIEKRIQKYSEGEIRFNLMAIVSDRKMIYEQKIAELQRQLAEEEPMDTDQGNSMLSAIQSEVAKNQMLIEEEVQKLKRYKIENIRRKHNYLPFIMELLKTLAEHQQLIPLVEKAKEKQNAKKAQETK
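Assay system: Proteasome-bound UCH37. Buffer or medium: pH 7.4 Tris-HCl (50 mM) with ovalbumin, ATP-MgCl2, DTT. Incubation: 30 min preincubation with enzyme, 25 min cleavage at room temperature. Measured by: fluorescence, ex 355 nm, em 460 nm. Read-out basis: percent inhibition. Control set: wells without proteasome as full block, compound-free enzyme plus substrate as uninhibited.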
Ecoli growth: inhibitors of Escherichia coli growth. AID 1053175. OD600, 23 h; active compounds read low. 0.21% of 330,000 active. OD600 absorbance (test concentration not listed);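 active means OD600 absorbance below the run mean of sample wells minus 3.6 SD, in any replicate, cut at about 0.56 in these data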;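 further: stock transfer was 300 nL into about 60 µL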
T cruzi inh: blocks replication of Trypanosoma cruzi; inhibition, % (concentration not given with the values); 1.4% of 300,000 active; AID 1885; T. cruzi beta-gal in NIH3T3, luminescence, 90 h;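 active means mean inhibition across valid replicates above about 55%, limit read from the data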;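 further: signal also drops with host cell toxicity which is not excluded here; 0% = plate median of DMSO wells and 100% = zero luminescence signal; higher percent means less beta-gal luminescence so fewer parasites; stock transfer was 50 nL into about 50 µL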
MLL AF4-AF9 inh: MLL-AF4/AF9 protein interaction inhibition; P42568; AlphaScreen, biotin-AF4 peptide binding to FLAG-AF9; inhibition, % at 10 µM; 0.47% of 350,000 active; AID 651704;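 active means every replicate reaching a set inhibition limit, whatever the replicate mean, cut at about 25% in these data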;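 further: 0% = plate neutral control median and 100% = total signal loss; the record names both 10 and 1 µM as test concentration; the first replicate is given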
Target sequence (P42568 whole entry, looked up): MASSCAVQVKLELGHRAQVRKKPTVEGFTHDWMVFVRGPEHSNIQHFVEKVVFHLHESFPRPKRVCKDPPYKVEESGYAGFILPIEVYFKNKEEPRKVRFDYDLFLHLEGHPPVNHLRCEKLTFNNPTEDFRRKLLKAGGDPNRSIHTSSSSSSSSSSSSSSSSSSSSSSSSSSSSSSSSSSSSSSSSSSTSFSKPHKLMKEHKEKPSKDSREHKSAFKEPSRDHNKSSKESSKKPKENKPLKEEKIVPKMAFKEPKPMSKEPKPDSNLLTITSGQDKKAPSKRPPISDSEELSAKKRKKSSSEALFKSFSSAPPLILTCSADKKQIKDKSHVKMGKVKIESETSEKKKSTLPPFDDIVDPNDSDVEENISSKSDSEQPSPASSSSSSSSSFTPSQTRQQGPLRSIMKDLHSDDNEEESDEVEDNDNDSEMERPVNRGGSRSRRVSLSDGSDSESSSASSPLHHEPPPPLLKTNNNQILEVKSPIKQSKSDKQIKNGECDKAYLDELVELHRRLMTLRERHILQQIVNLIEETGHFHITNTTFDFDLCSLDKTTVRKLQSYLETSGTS
Ecoli rRNA inh OD600: further read-out of Ecoli rRNA inh, marked with its call; OD600 change, %; measured here: OD600 growth;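 optical density of the mix in the first replicate; 0 = DMSO median and -100 = no signal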
Ecoli rRNA inh RFP: second read-out of Ecoli rRNA inh, no call of its own (marks repeat the call); RFP signal change, %; measured here: RFP humanized mutant strains;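 first replicate; 0 = DMSO median and -100 = no signal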
Starred values were filed as active, the others as inactive; i = inactive; · = no result given. An excerpt (hit frequency here may not be typical).

Order of results: UCH37 inh, Bfl-1 A1 inh, FGF22 binding, Ecoli rRNA inh, Beta cell apopt, Ecoli growth, Ecoli rRNA inh OD600, Ecoli rRNA inh RFP, T cruzi inh, MLL AF4-AF9 inh
- CCOc1ccc(N2C(=O)/C(=C/c3cccs3)N(C)C2=S)cc1
  3.8, -0.9, ·, ·, -1, 0.73, ·, ·, -3, ·
- COC(=O)[C@@]12CCCN1[C@H](c1ccc(-c3ccc4c(c3)OCO4)cc1)[C@H]1C(=O)N(C)C(=O)[C@H]12
  3.6, -0.2, i, -13, -4, ·, -9, 5.2, ·, 8.2
- Cc1ccc(-n2c(=O)cc(N3CCCCCC3)[nH]c2=O)cc1
  -1.0, 0.1, i, 2, -5, 0.77, 5, -0.1, -14, 0.0
- COc1ccccc1NC(=O)Cc1nnc(SCC(=O)NC2CCCC2)n1C
  1.1, 1.2, i, 5, -5, 0.66, 13, 3.8, -4, 1.0
- COc1cccc(C2c3[nH]c4ccccc4c3CCN2CCCn2cccn2)c1 (centres undefined)
  -0.7, -0.5, i, 1, -2, ·, -10, -2.3, 26, 9.5
- Cc1ccc(F)cc1NC(=O)c1c(-c2ccccc2)noc1C
  5.2, 0.6, i, -5, -1, 0.73, -11, -3.8, 4, -67
- O=C(CCNS(=O)(=O)c1ccccc1)NNC(=O)COc1ccccc1F
  -5.1, -1.0, i, 9, -5, 0.71, 6, -2.3, ·, -2.2
- O=C(NC(NC(=O)c1ccccc1)c1cccc([N+](=O)[O-])c1)c1ccccc1
  0.8, 0.7, ·, ·, -3, 0.7, ·, ·, 4, ·
- CCCC(=O)Nc1cc(C(=O)O)ccc1S(=O)(=O)c1ccc(Cl)cc1
  -3.5, -0.4, i, -1, 2, 0.73, 8, -2.5, 2, -2.6
- Cc1c(Br)c([N+](=O)[O-])nn1C(C)C(=O)Nc1nccs1 (centres undefined)
  -2.8, 0.7, ·, ·, ·, 0.67, ·, ·, 28, ·
- Fc1cccc(NC(=S)Nc2ccc(Br)cc2)c1
  1.0, -1.4, ·, ·, 0, 0.49*, ·, ·, 7, ·
- Cc1cccc(NC(=O)CSc2ccc(-c3ccccn3)nn2)c1C
  4.2, 0.6, i, 5, 1, 0.72, -9, -1.4, -7, -4.6
- CC(=O)OCC(=O)Nc1ccc(SC(F)F)cc1
  -0.3, 0.2, i, 7, 0, 0.67, 2, -2.3, 8, -1.2
- O=C(OCc1ccc(F)cc1Cl)c1ccccn1
  0.6, -2.4, ·, ·, -5, 0.72, ·, ·, 4, ·
- COc1ccc(N2CC(C(=O)Nc3ccccc3C(=O)NC3CC3)CC2=O)cc1 (centres undefined)
  4.5, -1.2, i, 5, ·, 0.65, 10, 0.9, 0, -1.2

Reprinted from the part before: five compounds, then new ones.
Order of results: UCH37 inh, Bfl-1 A1 inh, FGF22 binding, Ecoli rRNA inh, Beta cell apopt, Ecoli growth, Ecoli rRNA inh OD600, Ecoli rRNA inh RFP, T cruzi inh, MLL AF4-AF9 inh
- Fc1cccc(NC(=S)Nc2ccc(Br)cc2)c1
  1.0, -1.4, ·, ·, 0, 0.49*, ·, ·, 7, ·
- Cc1cccc(NC(=O)CSc2ccc(-c3ccccn3)nn2)c1C
  4.2, 0.6, i, 5, 1, 0.72, -9, -1.4, -7, -4.6
- CC(=O)OCC(=O)Nc1ccc(SC(F)F)cc1
  -0.3, 0.2, i, 7, 0, 0.67, 2, -2.3, 8, -1.2
- O=C(OCc1ccc(F)cc1Cl)c1ccccn1
  0.6, -2.4, ·, ·, -5, 0.72, ·, ·, 4, ·
- COc1ccc(N2CC(C(=O)Nc3ccccc3C(=O)NC3CC3)CC2=O)cc1 (centres undefined)
  4.5, -1.2, i, 5, ·, 0.65, 10, 0.9, 0, -1.2
- O=C(Nc1ccc(OC(=O)c2ccccc2)c(-c2nc3ccccc3s2)c1)c1ccccc1
  2.3, 1.1, ·, ·, 2, 0.78, ·, ·, -11, ·
- COc1ccccc1NC(=O)C(=O)c1cn(CC(=O)N2CCCC2)c2ccccc12
  1.1, 1.0, i, -2, 0, 0.66, -5, 40, 7, 12
- O=C(CCC(=O)NNC(=O)Cc1ccccc1)NCc1ccccc1
  -1.1, 0.0, ·, 11, -3, 0.67, 16, 0.8, -13, -1.4
- CC1=Nn2c(nnc2-c2ccccc2F)SC1
  0.0, 0.4, ·, ·, 2, 0.67, ·, ·, -9, ·
- Cn1c(SCC(=O)N2c3ccccc3CCc3ccccc32)nnc1-c1ccc(O)cc1
  1.8, 1.7, i, -28, ·, 0.72, -38, -5.7, 8, 0.2
- COc1cc(-c2c(C(C)=O)c(C)nc3c2C(=O)c2ccccc2-3)cc(OC)c1OC
  4.7, ·, i, 8, ·, 0.65, 12, -1.5, -2, -0.5
- COc1cccc(C(=O)NNC(=O)Cc2ccc([N+](=O)[O-])cc2)c1
  3.0, -0.9, i, 12, ·, 0.71, 2, -3.2, -20, -3.7
- Cc1nnc(Nc2ccc(O)cc2)[nH]c1=O
  2.8, 0.4, i, 20, 3, 0.64, 25, 4.8, -20, 3.6
- O=C(NC1CCCCC1)c1ccccc1-c1ccccc1
  2.7, 1.7, i, 2, -6, 0.65, -9, -3.2, -4, 5.8
- C/C(=N\NC(=O)c1c([N+](=O)[O-])c(C)nn1C)c1ccc(NC(=O)c2ccc(C)o2)cc1
  ·, -0.6, i, -5, 3, ·, -2, -1.5, 13, -0.5
- Cc1cc(Cl)ccc1OCC(=O)n1cc(C(=O)c2cc(Cl)ccc2O)cn1
  0.8, 1.1, ·, ·, -17, 0.68, ·, ·, -7, ·
- CCc1ccc(C(C(=O)NC2CCCC2)N(C(=O)c2csnn2)C2CC2)cc1 (centres undefined)
  -0.5, 0.8, i, 4, 0, 0.69, 9, 0.4, 11, 1.5
- CN(C)c1ccc(C(=O)N(Cc2ccccc2)Cc2ccccc2)cc1
  3.1, 0.3, i, -16, -2, 0.7, -7, -0.5, 7, -23
- Cc1ccc(-n2c(SCC(=O)c3c(N)n(C)c(=O)n(C)c3=O)nc3sc4c(c3c2=O)CCCC4)c(C)c1
  1.0, 0.0, ·, ·, 102*, 0.66, ·, ·, 68*, ·
- C=CS(=O)c1sc(Cl)c(N2CCOCC2)c1[N+](=O)[O-] (centres undefined)
  2.2, ·, ·, 6, ·, 0.7, 10, 1.1, 70*, 10
- CCc1ccc(NC(=O)COC(=O)CN2C(=O)COc3ccccc32)cc1
  5.6, 0.0, ·, ·, -3, 0.72, ·, ·, -2, ·
- CC(C)N(C(=O)[C@H]1C[C@H](CC(=O)NCC23CC4CC(CC(C4)C2)C3)C(=O)N2CCc3c([nH]c4cc(-c5ccco5)ccc34)[C@]12C)C(C)C
  -8.5, ·, i, 2, ·, 0.68, 10, 0.4, ·, 2.7
- O=C(CSc1nnc(CNC(=O)c2ccc(F)cc2)o1)NCc1ccc(F)cc1
  0.2, 1.0, i, 5, 0, 0.72, -1, 1.9, 9, -3.6
- COc1ccc2sc(-c3ccc(S(C)(=O)=O)cc3)c(-c3ccc(SC)cc3)c2c1
  -7.9, -0.6, i, 4, -7, 0.7, 2, -5.7, ·, -1.5
- CC(=O)c1cccc(NC(=O)c2c(-c3c(F)cccc3Cl)noc2C)c1
  1.8, -0.3, i, ·, -3, 0.65, ·, ·, ·, 0.1
- CCOC(=O)CSc1ccc(C(=O)Nc2ccc(Cl)cc2)cn1
  2.4, -3.2, i, 8, ·, 0.66, 2, 0.2, 4, -27
- COc1ccc(-n2nnc3c(SCC(=O)NCC4CCCO4)ncnc32)cc1 (centres undefined)
  -5.3, -7.6, ·, ·, -7, 0.74, ·, ·, ·, ·
- Nc1nnc(SCC(=O)NCC(=O)Nc2ccc(F)c(F)c2F)s1
  3.3, 0.7, i, 15, -2, 0.68, 4, 0.3, ·, -2.6
- Cc1ccc(C(=O)Nc2ccc(Oc3cccc(C(F)(F)F)c3)nc2)cc1
  2.4, 0.0, i, 6, 5, 0.64, 6, 1.4, -21, -3.4
- CCC1(C)N=C(N)Nc2nc3cc(C)c(C)cc3n21 (centres undefined)
  ·, -0.7, i, 7, -6, ·, 11, -2.3, 28, 2.6
- CCOC(=O)c1cnc2nc(C(F)(F)F)[nH]n2c1=O
  1.9, -1.2, ·, ·, -6, 0.69, ·, ·, -9, ·
- Cc1nn(C(C)CC(=O)O)c(C)c1Br (centres undefined)
  0.6, 0.1, i, 11, -1, 0.65, 9, 0.1, -14, 0.3
- CNC(=O)NC(=O)CSc1nnc(-c2ccc(F)cc2)n1CC1CCCO1 (centres undefined)
  2.8, -1.2, i, 4, -1, 0.71, 8, 3.0, -3, -2.8
- c1cncc(-c2nc3cc4ccccc4cc3[nH]2)c1
  -141, -8.7, ·, -26*, 6, 0.63, 2.4*, 4.7*, 0, 9.6
- O=C(c1ccco1)N1CCN(S(=O)(=O)c2ccc(F)cc2)CC1
  1.9, -0.1, ·, ·, ·, 0.7, ·, ·, 5, ·
- O=C(NNC(=S)NCc1ccccc1)c1ccc2c(c1)OCO2
  1.7, -0.7, i, -7, -6, 0.73, -4, -4.4, -18, -25
- Cc1cc(C(F)F)nn1CC(=O)NCc1ccc(Cl)cc1Cl
  0.0, 0.2, ·, ·, 6, 0.73, ·, ·, -3, ·
- C=CCOc1cccc(C2/C(=C(/O)c3ccccc3)C(=O)C(=O)N2CCN2CCOCC2)c1 (centres undefined)
  8.8, -0.6, ·, ·, -4, 0.72, ·, ·, -21, ·
- CCn1c(-c2cc(-c3cccc(OC)c3)nc3ccccc23)n[nH]c1=S
  2.8, 0.2, i, -44*, -8, 0.64, -34*, -8.0*, 14, -1.1
- O=C(COc1ccc([N+](=O)[O-])cc1)Nc1ccc(N2CCN(C(=O)c3ccco3)CC2)cc1
  6.8, 0.1, i, 10, 6, 0.7, 14, -3.1, 7, -1.3
- Cc1n[nH]c(C)c1CCN(C)Cc1cn(C)nc1-c1ccccc1F
  -0.8, 1.4, i, 7, -5, 0.7, 7, 2.3, -12, 3.6
- Cc1ccccc1-c1nc2sc3c(c2c(=O)n1N)CCCC3
  -2.5, -1.6, ·, ·, ·, 0.67, ·, ·, 10, ·
- Cc1cc(N/N=C/c2c(O)ccc3ccccc23)nc(-c2ccccc2O)n1
  ·, 0.0, i, -1, 89*, ·, -4, -6.9, -11, 8.6
- CCCCc1c(O)nc(SCC(=O)N2CCOCC2)n(-c2ccccc2OC)c1=O
  6.0, 0.0, i, ·, -6, 0.65, ·, ·, -9, 0.2
- Cc1sc2nc(-c3ccccc3)oc(=O)c2c1C
  -44, -5.9, i, 15, ·, 0.76, 9, -1.6, -4, 1.4
- C=CCn1c(SCC(=O)c2c(N)n(C)c(=O)n(C)c2=O)nnc1-c1ccoc1C
  -0.1, 0.3, i, 5, -6, 0.64, 2, 7.0, ·, -4.6
- Cc1ccc(-n2nc3c(=O)n(CCCC(=O)NCc4ccc(F)cc4)nc(C)c3c2C)cc1
  2.1, 0.7, i, 1, 4, 0.73, 9, 0.7, 3, -4.1
- CCCNC(=O)CN1C(=O)NC(Cc2c[nH]c3ccccc23)C1=O (centres undefined)
  3.7, 0.2, i, -1, 3, 0.67, 0, -1.5, -16, -0.5
- O=S(=O)(Nc1cccc(-c2ccc(N3CCOCC3)nn2)c1)c1cc(Cl)ccc1Cl
  -2.4, -9.0, i, -40, 6, 0.63, -43, -6.5, 2, -0.9
